HNF4A DNA FP = change in binding of human HNF4 alpha to DNA; actives 0.3% (n = 360,000); activity change, % at 10 µM; P41235; HNF4a-FITC DNA binding, fluorescence polarization, 1 h; in the data active = activity change above about 30%, passing the limit was not always enough;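 also: controls were the assay level and a saturating level of protein; the project sought stronger binding though the title names inhibitors; some compounds called inactive have numbers as strong as hits; positive values seem to mean higher polarization but the record does not say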
Target sequence (P41235 whole entry, looked up): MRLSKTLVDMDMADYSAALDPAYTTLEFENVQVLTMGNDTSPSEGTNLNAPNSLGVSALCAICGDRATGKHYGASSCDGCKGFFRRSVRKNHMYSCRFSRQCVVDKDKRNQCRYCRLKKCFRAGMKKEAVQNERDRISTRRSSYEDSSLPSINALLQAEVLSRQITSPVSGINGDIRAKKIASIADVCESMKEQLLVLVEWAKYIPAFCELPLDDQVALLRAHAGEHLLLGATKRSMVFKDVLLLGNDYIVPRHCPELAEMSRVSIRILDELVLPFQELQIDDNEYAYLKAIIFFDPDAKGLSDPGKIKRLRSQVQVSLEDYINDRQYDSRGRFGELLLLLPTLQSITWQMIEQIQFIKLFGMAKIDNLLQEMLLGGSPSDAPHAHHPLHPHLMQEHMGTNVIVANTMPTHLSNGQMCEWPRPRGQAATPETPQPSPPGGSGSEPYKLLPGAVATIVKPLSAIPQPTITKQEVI
Ecoli rRNA inh = inhibits bacterial ribosomal RNA function over humanized ribosomes | E. coli WT GFP vs humanized-ribosome RFP mutants, fluorescence, 24 h; active compounds read low; DMSO median 0, no signal -100 | actives 1.6% (n = 350,000) | GFP signal change (wild-type ribosome), % (test concentration not listed);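 active = significant combined selectivity score with lowered wild-type GFP, culture density cut under 30%, mutant RFP and density less affected; inactive = any of these conditions unmet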; also: one replicate is shown; some compounds called inactive have numbers as strong as hits
Vif TR-FRET = inhibitors of Vif binding to APOBEC3G peptide, primary screen, biochemical, TR-FRET, GST-Vif 1-94, biotin-A3G peptide, dose response retest (AID 1117319) | TR-FRET GST-Vif / biotin-A3G peptide binding; higher % means a stronger effect; test concentration not given here; strong numbers were not always called active | one-dose inhibition, %; IC50 in µM for titrated hits | actives 0.57% (n = 260,000);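 active = above the screen mean plus three standard deviations and confirmed in dose response; inconclusive = results disagree or hit not tested in dose response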;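 also: Vif residues 1-94 fused to GST binding biotinylated APOBEC3G peptide 110-148; 0% = full assay without inhibitor and 100% = GST in place of GST-Vif; retest series ran down from 100 µM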
AF4-AF9 inh = inhibitors of human MLL-AF4/AF9 interaction | inhibition, % at 10 µM | actives 0.47% (n = 350,000) | AID 651704 | AlphaScreen, biotin-AF4 peptide binding to FLAG-AF9;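 active = every replicate reaching a set inhibition limit, whatever the replicate mean, cut at about 25% in these data; inconclusive = mean inhibition reaches that limit but some replicates miss it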;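 also: 0% = plate neutral control median and 100% = total signal loss; the record names both 10 and 1 µM as test concentration; the first replicate is given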
Target sequence (P42568 whole entry, looked up): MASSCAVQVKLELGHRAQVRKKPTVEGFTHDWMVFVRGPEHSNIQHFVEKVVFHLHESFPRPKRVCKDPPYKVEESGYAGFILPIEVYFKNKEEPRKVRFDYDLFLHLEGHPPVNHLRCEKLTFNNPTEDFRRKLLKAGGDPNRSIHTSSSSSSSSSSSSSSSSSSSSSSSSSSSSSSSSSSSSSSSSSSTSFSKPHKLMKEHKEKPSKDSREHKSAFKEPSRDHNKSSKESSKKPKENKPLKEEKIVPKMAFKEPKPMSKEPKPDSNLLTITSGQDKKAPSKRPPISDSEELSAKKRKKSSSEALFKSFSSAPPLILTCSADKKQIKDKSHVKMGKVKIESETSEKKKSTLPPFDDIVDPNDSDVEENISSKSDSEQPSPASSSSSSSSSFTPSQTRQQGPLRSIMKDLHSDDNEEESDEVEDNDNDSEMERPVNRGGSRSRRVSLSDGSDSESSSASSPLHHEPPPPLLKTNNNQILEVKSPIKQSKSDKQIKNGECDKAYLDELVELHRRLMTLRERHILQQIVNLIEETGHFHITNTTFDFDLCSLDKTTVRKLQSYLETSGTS
ALR inh = blocks human ALR sulfhydryl oxidase activity. P55789. purified ALR, DTT oxidation, H2O2 HRP-luminol luminescence. inhibition, % (no concentration beside the values). actives 3.8% (n = 290,000). AID 485317;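 active = mean and each replicate at 75% or more; inconclusive = only one of the two met; inactive = neither met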;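 also: stock transfer was 7.5 nL into about 7.5 µL; 0% = neutral wells and 100% = wells with inactivated enzyme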
FGF22 binding = FGF22 (human) thermal shift binding | AID 651658 | actives 1.5% (n = 340,000) | calls only at 9.99 µM | recombinant FGF22 thermal shift, SYPRO orange fluorescence; percent of sucrose octasulfate shift, DMSO zero | Q9HCT0;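 active = melting point raised past a set limit in the mean and every replicate; inconclusive = no clear call; three in four hits are not shown here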
E coli growth = inhibitors of Escherichia coli growth. OD600, 23 h; active compounds read low. OD600 absorbance (concentration not given with the values). actives 0.21% (n = 330,000). AID 1053175;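 active = OD600 absorbance below the run mean of sample wells minus 3.6 SD, in any replicate, cut at about 0.56 in these data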;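 also: stock transfer was 300 nL into about 60 µL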
Ecoli rRNA inh OD600 = second read-out of Ecoli rRNA inh, no call of its own (marks repeat the call); OD600 change, %; measured here: OD600 growth;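 optical density of the mix in the first replicate; 0 = DMSO median and -100 = no signal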
Ecoli rRNA inh RFP = recorded beside Ecoli rRNA inh, whose call it bears; RFP signal change, %; measured here: RFP humanized mutant strains;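 first replicate; 0 = DMSO median and -100 = no signal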
* = called active by the depositor; i = inactive; ? = inconclusive; nt = no result given; & = joins results of further samples.

Compound,HNF4A DNA FP,Ecoli rRNA inh,Ecoli rRNA inh OD600,Ecoli rRNA inh RFP,Vif TR-FRET,AF4-AF9 inh,ALR inh,FGF22 binding,E coli growth
Cn1c(SCc2ccccc2C#N)nnc1-c1ccncc1,-0.8,16,8,1.0,-1%,0.7,2,i,0.71
COc1ccc2c3c(n(C)c2c1)[C@@H](CO)N(C(=O)CC1CC1)CC31CCN(C(=O)CC2CC2)CC1,nt,-5,-3,-0.2,nt,0.6,nt,i,nt
CCN(CCOC(=O)Nc1ccc(Cl)cc1)C(=O)Nc1ccc(Cl)cc1,nt,-56,-77,-18,nt,3.8,nt,i,nt
O=C(C[C@H]1CC[C@H]2[C@@H](COC[C@@H](O)CN2S(=O)(=O)c2ccc(Oc3ccccc3)cc2)O1)Nc1ccccc1,nt,-8,-36,16,nt,1.0,nt,i,nt
COC(=O)C(Cc1ccccc1)NC(=O)CSc1nc(C)cc(=O)[nH]1 (centres undefined),-5.0,4,4,-0.8,19%,-4.7,-22,i,0.68
COc1ccc(S(=O)(=O)Nc2ccc3c(c2)CC(=O)N([C@H](C)CO)C[C@H](C)[C@@H](CN(C)S(=O)(=O)c2ccc(OC)cc2)O3)cc1,nt,-7,0,3.2,nt,2.5,nt,i,nt
O=C1C=CC(=O)N1Cc1cccnc1,14,28,22,8.9,1%,-1.7,nt,i,0.68
O=c1cnn(-c2ccccc2)c(-c2ccccc2)c1,-0.1,nt,nt,nt,-1%,nt,-2,nt,0.7
Cc1ccc(C2=NS(=O)(=O)N(C)C(C(=O)NC3CCCC3)=C2)cc1,-1.7,-4,-8,-6.6,nt,-1.0,5,i,0.72
CC(C)(C)OC(=O)C[C@@H]1C/C=C\C[C@H](CC(=O)N[C@H](CO)Cc2ccccc2)C(=O)N2CCC[C@H]2COC1=O,-7.4,1,6,6.0,nt,-4.6,-4,i,nt
C[C@@H]1CN([C@@H](C)CO)C(=O)c2cc(-c3cccnc3)cnc2O[C@@H]1CN(C)C(=O)Nc1ccc(F)cc1,nt,3,10,-1.7,nt,-0.2,nt,i,nt
NC(=O)C(=O)N/N=C/c1c2ccccc2cc2ccccc12,106,nt,nt,nt,nt,2.2,9,i,nt
CC1(C(=O)NCc2cc(F)cc(C(F)(F)F)c2)C=CC2(CCCCC2)N1C(=O)c1ccccc1 (centres undefined),7.9,5&6,2&5,-0.1&0.0,7%,-3.6,3,i,0.72
Cc1cc(C)nc(/N=C(\NC(=O)C(C)(C)C)Nc2ccccc2)n1,-3.1,nt,nt,nt,nt,0.8,2,i,nt
COc1ccccc1C(=O)NCCC(=O)Nc1cccc(S(=O)(=O)N2CCCC2)c1,-0.5,-16,-10,4.0,-11%,0.5,nt,i,0.68
Cc1ccc(C)n1-c1ccc(C(=O)NN)cc1,-0.2,8,13,-8.6,-4%,-0.6,39,i,nt
Cc1cc(CN(C)C(=O)c2cc(COc3ccc(C)c(C)c3)on2)n[nH]1,-2.4,-32,-28,-5.6,2%,1.9,-1,i,0.71
c1ccc(NCc2nnc3n2CCCCC3)cc1,0.6,nt,nt,nt,31%,nt,18,nt,0.68
COc1ccc(NC(=O)C(OC(=O)c2ccc([N+](=O)[O-])o2)c2ccccc2)cc1Cl (centres undefined),3.5,nt,nt,nt,1%,nt,-13,nt,nt
O=C(NNC(=S)Nc1ccc(Cl)cc1)c1ccccc1,0.6,-42,-68,-13,12%,0.5,42,i,0.74
COc1ccc(NC(=O)N2CCC(n3nnc4cc(C)ccc43)CC2)cc1,5.5,nt,nt,nt,3%,nt,-14,nt,0.67
O=C(CCN1C(=O)/C(=C/c2ccccc2Cl)SC1=S)NNC(=O)c1cccnc1,-4.1,6,13,11,13%,-0.6,-3,i,0.7
Cc1cnc(-c2nc3ccccc3n2C(C)C(=O)Nc2c(C)cccc2C)cn1 (centres undefined),3.5,3,9,5.2,nt,-1.0,nt,i,nt
CC(=O)N1CC(C)Oc2ccc(S(=O)(=O)NC(CC(=O)O)c3ccccc3C)cc21 (centres undefined),1.1,5,3,0.2,-4%,-1.5,-11,i,0.7
COC(=O)C1CCN(C(=O)C(C)Oc2ccc(Cl)cc2Cl)CC1 (centres undefined),-1.0,nt,nt,nt,1%,-5.6,-6,i,0.65
CC(=O)N1CCCc2cc(S(=O)(=O)Nc3cccc(C)c3C)ccc21,-0.9,-7,-9,2.3,nt,-0.5,0,i,0.67
C[C@H](CO)N1C[C@H](C)[C@H](CN(C)S(C)(=O)=O)Oc2c(NC(=O)NC3CCCCC3)cccc2C1=O,nt,-1,-4,-0.7,nt,-1.2,nt,i,nt
C[C@H]1CCCCO[C@H](CN(C)C(=O)Nc2ccc(F)cc2)[C@@H](C)CN([C@@H](C)CO)C(=O)c2cc(NC(=O)c3ccncc3)ccc2O1,nt,-1,3,-1.8,nt,1.1,nt,i,nt
CN(C)CC(C(=O)c1ccccc1)c1ccccc1 (centres undefined),-0.5,nt,nt,nt,2%,nt,6,nt,0.74
COc1ccc(CNC(=O)COc2ccc(S(=O)(=O)N3CCCCC3)cc2)cc1,0.8,-1,22,-2.3,nt,-1.4,-2,i,0.64
C=CC1=C(C(=O)O)N2C(=O)C(NC(=O)Cc3ccccc3)C2SC1 (centres undefined),-56,10,11,3.5,12µM*,-15,-44,nt,0.67
Cc1noc(C)c1NC(=O)Nc1ccc2c(c1)C(=O)N([C@H](C)CO)C[C@H](C)[C@@H](CN(C)CC1CC1)OCCCC[C@H](C)O2,nt,2,14,-2.4,nt,-6.4,nt,i,nt
O=C1CCCN1CCCNc1ncnc2c1cnn2-c1ccc(Cl)cc1,-4.1,-12,-9,-2.1,1%,-14,7,i,0.72
CCCNC(=O)N1C[C@@H](C)[C@@H](OC)CN(C)C(=O)c2cc(NS(C)(=O)=O)ccc2OC[C@@H]1C,nt,-1,-3,-1.3,nt,-10,nt,i,nt
Cn1nccc1-c1coc2c(C(=O)N3CCOCC3)cccc12,2.7,9,8,0.1,nt,1.7,nt,i,nt
Cc1nn(-c2ccccn2)c2c1-c1nc(N3CCOCC3)ncc1CC2,-2.7,nt,nt,nt,-38%,nt,-20,nt,0.69
Cn1c2ccc(F)cc2c2nc3ccccc3nc21,-4.9,-15,-11,-0.8,nt,-0.8,-6,i,0.71
Cc1[nH]c2ccccc2c1C(=O)COc1ccccc1,-1.0,nt,nt,nt,nt,nt,-4,nt,0.64
COc1ccc(CNC(=O)C[C@H]2C=C[C@@H](NC(=O)Nc3ccc4c(c3)OCO4)[C@@H](CO)O2)cc1,nt,2,5,2.3,nt,-2.1,nt,i,nt
Cc1ccc(-n2nc(C)c3c2OC(N)=C(C#N)C3c2ccc(C)o2)cc1 (centres undefined),1.4,3,12,1.8,?,17,-26,i,0.67
Cc1noc(C)c1S(=O)(=O)Nc1ccc2c(c1)C(=O)N([C@@H](C)CO)C[C@H](C)[C@@H](CN(C)C(=O)NC1CCCCC1)OCCCC[C@@H](C)O2,nt,2,-1,1.6,nt,1.7,nt,i,nt
O=C(Nc1cccc([N+](=O)[O-])c1)Nn1cnnc1,4.1,4,14,1.8,nt,-0.5,-13,i,0.69
CCC1=C(OC(=O)c2ccccc2)C(C)(C)C(c2ccccc2)OC1=O (centres undefined),3.8,nt,nt,nt,20%,nt,-10,nt,0.72
C/C(=N\NC(=O)c1ccco1)c1ccc(NC(=O)C(F)(F)F)cc1,2.2,3,13,-1.8,nt,-2.4,nt,i,nt
Cc1ccc(C(=O)COC(=O)CNC(=O)C(c2ccccc2)c2ccccc2)cc1[N+](=O)[O-],-0.4,nt,nt,nt,75%,nt,-8,nt,0.71
C[C@@H]1CN([C@H](C)CO)C(=O)Cc2cc(NS(=O)(=O)c3ccc(F)cc3)ccc2O[C@H]1CN(C)Cc1ccc2c(c1)OCO2,nt,-2,-5,-0.1,nt,-15,nt,i,nt
Cc1csc(NC(=O)CN2C(=O)C3CC=CCC3C2=O)n1 (centres undefined),-0.9,nt,nt,nt,-4%,nt,-3,nt,0.7
CCCCN1C[C@H](C)[C@@H](CC(=O)Nc2ccc(OC)cc2)C1=O,3.2,0,3,-0.9,1%,-4.2,nt,i,nt
CNC(=O)C[C@H]1CC[C@@H]2[C@H](COc3ccc(NC(=O)Nc4ccccc4F)cc3C(=O)N2C)O1,nt,-1,-1,-0.2,nt,-2.5,nt,i,nt
CN1C(=O)c2cc(NC(=O)c3cccs3)ccc2OC[C@H]2O[C@@H](CC(=O)NCCN3CCCCC3)CC[C@H]21,nt,2,9,-1.7,nt,0.2,nt,i,nt
COc1ccc(-n2c(C)cc(C(=O)Cn3nc(C(=O)O)c4ccccc4c3=O)c2C)cc1,5.3,nt,nt,nt,nt,nt,5,nt,0.69
C[C@H](NC(=O)N(C)C[C@H]1OCc2ccccc2-c2c(n(C)c3ccccc23)C(=O)N([C@@H](C)CO)C[C@@H]1C)c1ccccc1,nt,1,1,1.2,nt,4.0,nt,i,nt
COc1ccc(-c2nnc(SCC(=O)NC3CCCCC3)o2)cc1,-0.5,5,9,-0.1,nt,-0.9,-1,i,0.68
COc1cccc(-n2nnnc2SCC(=O)c2ccc(NC(C)=O)cc2)c1,0.5,-4,-5,3.9,-5%,-4.2,-4,i,0.68
COc1ccc(N2CCN(C(=O)Cn3cnc4c3c(=O)n(C)c(=O)n4C)CC2)cc1,0.5,7,6,2.1,5%,0.6,43,i,0.69
CCOc1ccc(CC2S/C(=N/N=C/c3ccco3)NC2=O)cc1 (centres undefined),1.1,-2,-6,-1.2,13%,1.3,-9,i,nt
Clc1nc2ccccc2cc1-c1nnn(-c2ccccc2Br)n1,-1.5,-3,-1,0.5,nt,0.2,-1,i,0.71
O=C(NC(Cc1ccccc1)C(=O)O)/C(=C/c1ccc(Cl)cc1)NC(=O)c1ccco1 (centres undefined),-0.8,5,-1,-2.2,nt,4.6,-2,i,0.65
CC(=O)N1CC2(C1)[C@H](c1ccccc1)[C@H](CO)N2C(=O)Cc1ccccc1,nt,4,24,-0.5,nt,-5.1,nt,i,nt
CCCC#Cc1cnc2c(c1)C(=O)N([C@H](C)CO)C[C@H](C)[C@H](CN(C)Cc1ccncc1)O2,nt,-3,9,-0.3,nt,-7.4,nt,i,nt

Continued.
Compound,HNF4A DNA FP,Ecoli rRNA inh,Ecoli rRNA inh OD600,Ecoli rRNA inh RFP,Vif TR-FRET,AF4-AF9 inh,ALR inh,FGF22 binding,E coli growth
Cn1c(=O)[nH]c(=O)c2c1nc(SCCN1CCOCC1)n2CCCc1ccccc1,-2.4,6,7,-1.3,0%,-2.4,-12,i,0.77
Cc1noc(C)c1NC(=O)Nc1cccc2c1O[C@H](CN(C)S(=O)(=O)c1ccc(Cl)cc1)[C@H](C)CN([C@H](C)CO)C2=O,nt,2,4,0.4,nt,-0.2,nt,i,nt
COc1ccc(C2(C(=O)N3CCC(n4nc(-c5ccccc5)oc4=O)CC3)CC2)cc1,-2.6,nt,nt,nt,-2%,nt,-3,nt,0.68
O=C(NCCCN1CCCC1=O)C1CCN(S(=O)(=O)N2CCOCC2)CC1,-0.8,nt,nt,nt,?,nt,nt,nt,0.74

The list is partial; the hit share may differ from the screen's.
